Sfp PPTase inh: blocks B. subtilis Sfp PPTase activity; Biochemical Sfp PPTase activity, qHTS; Q9F4F7; AID 1490; actives 3.5% (n = 310,000); Potency, µM, without a hit: max response, negative = inhibition, hits mostly inhibitors; active = well fitted inhibition curve with a large enough effect; inconclusive = small, poorly fitted or top-dose-only effect, or another doubt; inactive = no such curve, though single readings can be large or run the other way;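 also: the enzyme is Sfp with the accession as filed and its product quenches rhodamine fluorescence; potency is read from the fitted curve at half-maximal effect; 0% = enzyme reaction without inhibitor and -100% = no enzyme wells; top concentration of the series not given in the record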
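Sfp 15 nM + cpd, 15 min RT; start w/ rhodamine-CoA 5 uM, BHQ-2-YbbR 12.5 uM (final); 50 mM Hepes pH 7.6, 10 mM MgCl2, 0.01% NP-40, 0.01% BSA; read 525/598 nm at 0 and 30 min.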
D2 potentiator: human D2 receptor positive allosteric modulation; actives 0.23% (n = 360,000); AID 624464; DiscoveRx D2 beta-arrestin cells, luminescence, 90 min; 100% = 57 uM dopamine signal; P14416; potentiation, % (no concentration beside the values); active = potentiation of 50% or more; inconclusive = 30% to 50%; inactive = 30% or less;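 also: compound concentration not given in the record; tested on top of an EC20 dose of dopamine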
Target sequence (P14416 whole entry, looked up): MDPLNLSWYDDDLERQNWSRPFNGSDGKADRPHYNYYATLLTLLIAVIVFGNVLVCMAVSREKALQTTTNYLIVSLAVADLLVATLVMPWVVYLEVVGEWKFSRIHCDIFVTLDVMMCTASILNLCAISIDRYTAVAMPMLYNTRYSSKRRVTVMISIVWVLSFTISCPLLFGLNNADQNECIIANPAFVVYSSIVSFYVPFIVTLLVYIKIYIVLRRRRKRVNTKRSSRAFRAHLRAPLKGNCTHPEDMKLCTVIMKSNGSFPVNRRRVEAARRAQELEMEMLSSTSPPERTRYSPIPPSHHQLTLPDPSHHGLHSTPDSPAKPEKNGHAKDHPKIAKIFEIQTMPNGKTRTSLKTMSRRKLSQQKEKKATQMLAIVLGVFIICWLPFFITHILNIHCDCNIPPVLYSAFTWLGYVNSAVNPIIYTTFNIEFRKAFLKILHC
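PathHunter D2 cells, attached overnight at 37 deg C, received compound in DMSO plus dopamine at EC20 (50 nM final) for 90 min at 37 deg C. Beta-arrestin recruitment was read as luminescence after 1 h with detection reagent at ambient temperature.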
gsp antag: antagonizes gsp, the McCune-Albright syndrome mutation. gsp-mutant cells, cAMP HTRF, 30 min; control for the full effect not named in the record. Potency, µM (doses to about 76.9 µM), for inactives: at the highest dose activity change, negative = inhibition, hits mostly inhibitors. actives 0.4% (n = 340,000). AID 624288; active = falling curve of any shape with a large fitted effect; inconclusive = falling curve, mostly with a smaller effect; inactive = flat or rising curve; cell line not stated here;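 also: intracellular cAMP measured with PDE inhibitor Ro 20-1724 present during compound exposure; potency is read from the fitted curve at half-maximal effect; % is scaled to controls: 0 for no effect and ±100 for the full control effect; nearly all actives have a fitted effect of over 65% in size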
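HTRF cAMP measurement after 30 min RT detection following 30 min, 37C compound treatment alongside […] (added as 300 uM solution) in G418-selected cells seeded at 2000/well and grown 16–24 h.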
TRPV1 PAM: potentiators of human vanilloid receptor 1 (TRPV1); AID 540277; Q8NER1; TRPV1-expressing cells, Fluo-8 calcium influx, capsaicin EC20 potentiation; host cell line not named in the record; control for the full effect not named in the record; actives 0.02% (n = 320,000); potentiation, % at 8.33 µM; active means potentiation above 80%; inconclusive means 30% to 80%; inactive means below 30%; also: 0% is about no effect
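TRPV1-expressing cells were cultured overnight at 35.5C and loaded with Fluo-8 calcium dye for 40 to 90 min at room temperature. After a 10 s baseline, compound was added and calcium influx was read kinetically for 3 min (ex 480/em 520 nm).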
Menin MLL FP FL: inhibitors of human menin-MLL interaction, wild-type MLL peptide; FP activity change, % at 61.4 µM; 290,000 tested, under 10 active; AID 1766; Fluorescence polarization, fluorescein-MLL peptide displacement from menin; inconclusive = falling polarisation curve, or a change in total fluorescence; inactive = total fluorescence flat and polarisation flat or rising; no compound was filed as active; the % refers to the polarisation; negative = inhibition;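 also: % of control where 0% means no effect; inhibitors lower the polarisation; unlabelled MLL peptide was the positive control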
ClpP mod: qHTS Assay for Activators of ClpP; ATP-dependent Clp protease proteolytic subunit (Bacillus subtilis (strain 168)), P80244; purified B. subtilis ClpP, FRET peptide cleavage, 20 min; Potency, µM (top dose mostly 57.5 µM), inactives show at the top dose activity change, negative = active; actives 1.9% (n = 340,000); active = well fitted falling curve with a large enough effect; inconclusive = small, poorly fitted or top-dose-only effect; inactive = no such curve, though single readings can be large or run the other way; also: potency is read from the fitted curve at half-maximal effect; the source files actives as falling curves though it sought activators and does not explain the sign; nearly all actives have a fitted effect of over 65% in size; many hits overshoot -100%
Target sequence (P80244 whole entry, looked up): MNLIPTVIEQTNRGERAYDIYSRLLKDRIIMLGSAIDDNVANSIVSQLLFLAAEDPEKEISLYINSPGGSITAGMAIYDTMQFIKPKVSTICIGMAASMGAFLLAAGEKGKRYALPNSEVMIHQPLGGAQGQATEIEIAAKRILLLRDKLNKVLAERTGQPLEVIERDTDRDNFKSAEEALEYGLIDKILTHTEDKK
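ClpP 10 microg/mL final, pH 8 Tris/KCl buffer with BSA, glycerol, Tween-20; compound pinned in; FRET-FV substrate; RT 20 min; Ex320/Em430; ΔFRET vs ADEP 5.8 microM, DMSO, no enzyme.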
gsp agonist: agonists of gsp mutant (McCune-Albright syndrome); Potency, µM (titrated, usually from 76.9 µM), without a hit: at the highest dose activation (cAMP increase), usual class: activators; actives 0.13% (n = 340,000); gsp mutant cells, cAMP HTRF, 30 min; control for the full effect not named in the record; active = well fitted activation curve with a large enough effect; inconclusive = small, poorly fitted or top-dose-only effect, or another doubt; inactive = no such curve, though single readings can be large or run the other way; cell line not stated here;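 also: phosphodiesterase inhibitor Ro 20-1724 added with compounds to block cAMP breakdown; potency is read from the fitted curve at half-maximal effect; nearly all actives have a fitted effect of over 60% in size; about a fifth of the inactives were tested at one dose only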
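Cells stably selected in G418 were plated at 2000/well, grown 16-24 hr, then given compounds in DMSO with the PDE inhibitor […] (300 uM solution added) for 30 min at 37C; cAMP was read by HTRF.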
Active calls of the source: *; ? = inconclusive; / = not tested or not shown; & = joins results of further samples; [ ] = remark or other dose.

SMILES	Sfp PPTase inh	D2 potentiator	gsp antag	TRPV1 PAM	Menin MLL FP FL	ClpP mod	gsp agonist
O=C(O)[C@@H]1Cc2c([nH]c3ccccc23)C2CCC(=O)N21 (stereo partly specified)	4%	2	19%	8	14	-20%	-8%
Cc1c(Cl)cccc1N1C(=O)CC(Sc2ccccc2N)C1=O (stereo unspecified)	/	-6	/	/	/	-0.6%	-6%
Cc1ccc(S(=O)(=O)N/N=C/c2ccc(OCC(=O)NC(C)C)cc2)cc1	/	1	0%	/	/	-2.6%	-25%
CCCCc1cc(=O)oc2c(C)c(OCC(=O)NCCN3CCOCC3)ccc12	-4%	-3	-9%	-13	-5.6	4.0%	15%
O=C(Cc1ccc(F)cc1)Oc1ccc(C(=S)N2CCCC2)cc1	-8%	4	8%	-3	4.8	-0.1%	16%[15.4 µM]
O=C(CSc1nnnn1-c1ccc(Cl)cc1)NC1CCS(=O)(=O)C1 (stereo unspecified)	/	2	-2%	/	/	0.7%	-24%
CC(C)N1CCN(Cc2cccs2)CC1CCO (stereo unspecified)	4%	-2	4%	14	-2.3	0.5%	5%
COc1ccc(C(C)C)cc1S(=O)(=O)NC1CCCC1	5%	-9	4%	-2	/	0.5%	17%
CCOC(=O)c1sc2cc([N+](=O)[O-])cc(SCCO)c2c1N	-7%	?	-2%	-4	12	1.1%	-3%
CCSc1nc2sc3c(c2c(=O)n1C1CCCCC1)CCN(C)C3	-13%	3	-11%	22	3.8	-20%	-27%
COc1ccc(-n2c(Cc3cccn3C)nnc2SCC(=O)NCc2ccc(F)cc2)cc1	-12%	3	-4%	-12	2.9	2.2%	-69%[inhibitor]
Oc1[nH]c(=S)sc1/C=C1\C(c2ccccc2)=Nc2ccccc21	-13%	-9	?	-4	?	-1.5%	-30%[inhibitor]
Cc1ccc(NC(=O)c2ccccc2)cc1OC(=O)c1ccccc1	-6%	-5	-29%	-14	-1.2	-5.0%	-14%
Cc1ccc2nc3c(c(N)c2c1)CCN3c1ccccc1	-16%	-38	-13%	-3	?	28%	?
COc1ccc(/C=C/C(=O)NC(=S)NNC(=O)c2cc(OC)c(OC)c(OC)c2)cc1OC	13%	-27	1%	0	9.6	1.8%	-2%
CC1CC(=O)Nc2ccccc2N1 (stereo unspecified)	/	-13	5%	/	/	/	0%
CCN(CC)c1ccc(N2C(=O)/C(=C/c3cccnc3)SC2=S)cc1	-8%	?	5%	29	2.2	1.8%	-18%
CCN1C(=O)[C@H]2[C@@H](c3ccc(C)cc3)N3C(=O)N(c4ccc(C)cc4)C(=O)[C@@]3(Cc3ccc(Cl)cc3)[C@H]2C1=O	9%	2	6%	12	2.4	-0.5%	/
CCOc1ccccc1N(CC(=O)Nc1ccc(S(=O)(=O)N2CCOCC2)cc1)S(C)(=O)=O	7%	-3	-8%	-2	/	/	5%[15.4 µM]
Nc1c2c(nc3cccc(Cl)c13)N(c1ccccc1)CC2	9%	-3	-10%	-11	-1.8	/	?
CCOC(=O)c1ccc(NC(=O)C2(c3ccccc3)CCOCC2)cc1	4%	-3	-13%	-12	0.7	-1.7%	-19%
CCOC(=O)c1nn(-c2ccccc2F)c2nc(-c3ccco3)c(C#N)c(=O)n12	-17%	-15	?	-3	-0.4	14%	0%[15.4 µM]
Clc1ncccc1-c1nnn(-c2ccccc2Br)n1	12%	-10	-2%	6	-3.2	-2.8%	-16%
CCc1ccc(C2CC(=O)N3CN(c4ccccc4)CSC3=C2C#N)cc1 (stereo unspecified)	2µM*	-10	-19%	6	6.1	-0.9%	?
O=C(CCC1CCCN(C(=O)c2cncs2)C1)NCc1ccc(F)c(F)c1 (stereo unspecified)	-16%	-1	/	7	6.3	/	16%[15.4 µM]

Carrying on:
SMILES	Sfp PPTase inh	D2 potentiator	gsp antag	TRPV1 PAM	Menin MLL FP FL	ClpP mod	gsp agonist
CCCCCCN=C(C)c1ccccc1O	9%	-8	12%	/	4.3	/	0%[15.4 µM]
CCC(CC)NC(=O)Cc1ccccc1[N+](=O)[O-]	13%	-4	10%	-39	0.8	?	-47%[inhibitor]
COC(=O)c1cccc(Cn2c(Cl)c(/C=N/NC(=O)c3ccccc3Cl)sc2=O)c1	1%	5	-8%	-47	23	-1.4%	16%
CN(C)CCC#CC(O)(c1ccccc1)c1ccccc1	4%	8	17%	-5	1.8	-3.0%	-18%
O=C(/C(=N\O)n1cncn1)c1ccc(Cl)cc1Cl	25%	-3	3%	6	0.2	/	38%
Cc1ccc(-n2c(-c3nn(C)cc3Cl)n[nH]c2=S)cc1	13µM*	-13	5%	8	-1.1	-0.7%	?
COC(=O)c1cc(Cl)c(NC(=O)c2ccc(C(C)(C)C)cc2)cc1OC	14µM*	-15	-3%	-6	1.0	-14%	26%
O=C(Nc1cccc(Cl)c1)C1CC1c1ccccc1 (stereo unspecified)	/	-5	6%	/	/	/	10%[15.4 µM]
Cc1ccc(N2C(=O)CC(NNC(=O)Cc3ccc(F)cc3)C2=O)cc1Cl (stereo unspecified)	7%	-15	4%	-20	-1.7	0.7%	0%
CCOc1ccc(CCNC(=O)CN2C(=O)c3cccnc3Oc3ccc(Cl)cc32)cc1	11%	0	-17%	1	4.6	-2.5%&0.4%	-19%
C/C(=N\NC(=O)C(N)=O)c1ccc2c(c1)OCCO2	-18%	-3	-2%	11	2.9	/	-1%[15.4 µM]
CCCCN1CNC(=S)N(CCc2ccccc2)C1	3%	-9	6%	-1	2.2	-6.1%	1%[15.4 µM]
Cc1ccc(C(=O)N/C(=C\c2ccc(Cl)cc2)C(=O)NCCN2CCOCC2)cc1	9%	-16	25%	8	-0.8	/	-6%[15.4 µM]
Cc1ccc(NC(=O)CNCc2ccccc2)cc1Br	?	-21	0%	5	-0.9	/	-2%[15.4 µM]
O=C(CSCCO)Nc1ccc(C2CCCCC2)cc1	-11%	-2	2%	11	10	-5.6%	9%
CN(c1ccccc1)S(=O)(=O)c1ccc(C(=O)Nc2nccs2)cc1	11%	-2	-3%	-9	2.1	13%	-128%[inhibitor]
CC1Oc2ccccc2N(CC(=O)NCC2CCCO2)C1=O (stereo unspecified)	-2%	-6	8%	-10	4.8	-5.9%	-29%
O=C(OCc1nc2ccccc2s1)C1CCN(S(=O)(=O)c2cccs2)CC1	13%	8	-6%	0	6.5	-2.2%	-10%
COc1ccc(C(CNC(=O)c2nn(-c3ccccc3)c(=O)c3ccccc23)N2CCOCC2)cc1 (stereo unspecified)	/	4	-10%	-5	/	/	4%[15.4 µM]
CCOP(=O)(O)c1ccccc1OCCCCCOc1ccccc1P(=O)(O)OCC	5%	-12	2%	4	3.9	1.9%	-38%
Cc1cc(Br)c(Oc2cc(NN3CCCCC3)c([N+](=O)[O-])cc2[N+](=O)[O-])c(Br)c1	/	-48	-5%	/	/	-1.5%	/
O=C(COC(=O)c1cc(Cl)nc2ccccc12)c1ccc(Cl)cc1	-3%	-1	-17%	-11	2.6	0.3%	-8%[15.4 µM]
O=[N+]([O-])c1ccc(-c2csc(NN=C3CCCC3)n2)cc1	16%	0	-8%	-1	-3.9	/	-17%

Part of the list above, bar-delimited:
Structure | Sfp PPTase inh | D2 potentiator | gsp antag | TRPV1 PAM | Menin MLL FP FL | ClpP mod | gsp agonist
CN(C)CCC#CC(O)(c1ccccc1)c1ccccc1 | 4% | 8 | 17% | -5 | 1.8 | -3.0% | -18%
O=C(/C(=N\O)n1cncn1)c1ccc(Cl)cc1Cl | 25% | -3 | 3% | 6 | 0.2 | / | 38%
Cc1ccc(-n2c(-c3nn(C)cc3Cl)n[nH]c2=S)cc1 | 13µM* | -13 | 5% | 8 | -1.1 | -0.7% | ?
COC(=O)c1cc(Cl)c(NC(=O)c2ccc(C(C)(C)C)cc2)cc1OC | 14µM* | -15 | -3% | -6 | 1.0 | -14% | 26%
O=C(Nc1cccc(Cl)c1)C1CC1c1ccccc1 (stereo unspecified) | / | -5 | 6% | / | / | / | 10%[15.4 µM]
Cc1ccc(N2C(=O)CC(NNC(=O)Cc3ccc(F)cc3)C2=O)cc1Cl (stereo unspecified) | 7% | -15 | 4% | -20 | -1.7 | 0.7% | 0%
CCOc1ccc(CCNC(=O)CN2C(=O)c3cccnc3Oc3ccc(Cl)cc32)cc1 | 11% | 0 | -17% | 1 | 4.6 | -2.5%&0.4% | -19%
C/C(=N\NC(=O)C(N)=O)c1ccc2c(c1)OCCO2 | -18% | -3 | -2% | 11 | 2.9 | / | -1%[15.4 µM]
CCCCN1CNC(=S)N(CCc2ccccc2)C1 | 3% | -9 | 6% | -1 | 2.2 | -6.1% | 1%[15.4 µM]
Cc1ccc(C(=O)N/C(=C\c2ccc(Cl)cc2)C(=O)NCCN2CCOCC2)cc1 | 9% | -16 | 25% | 8 | -0.8 | / | -6%[15.4 µM]
Cc1ccc(NC(=O)CNCc2ccccc2)cc1Br | ? | -21 | 0% | 5 | -0.9 | / | -2%[15.4 µM]
O=C(CSCCO)Nc1ccc(C2CCCCC2)cc1 | -11% | -2 | 2% | 11 | 10 | -5.6% | 9%
CN(c1ccccc1)S(=O)(=O)c1ccc(C(=O)Nc2nccs2)cc1 | 11% | -2 | -3% | -9 | 2.1 | 13% | -128%[inhibitor]
CC1Oc2ccccc2N(CC(=O)NCC2CCCO2)C1=O (stereo unspecified) | -2% | -6 | 8% | -10 | 4.8 | -5.9% | -29%
O=C(OCc1nc2ccccc2s1)C1CCN(S(=O)(=O)c2cccs2)CC1 | 13% | 8 | -6% | 0 | 6.5 | -2.2% | -10%
COc1ccc(C(CNC(=O)c2nn(-c3ccccc3)c(=O)c3ccccc23)N2CCOCC2)cc1 (stereo unspecified) | / | 4 | -10% | -5 | / | / | 4%[15.4 µM]

High-throughput results: PubChem BioAssay, National Center for Advancing Translational Sciences (NCATS)
